Hsc70 ATP site: Hsc70 inhibitors, probe displacement, primary screen, biochemical, fluorescence polarization (AID 568); Heat shock cognate 71 kDa protein (Homo sapiens); Hsc70 fluorescence polarization, probe displacement; higher % means a stronger effect; strong numbers were not always called active; displacement, % at 20 µM, or IC50 in µM where a hit was titrated; 83,000 tested, under 10 active;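 active = displacement above 50% without optical interference and an IC50 on retest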;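 also: ATPase domain with a fluorescein-tagged ATP probe; 0% = vehicle and 100% = excess ADP; read after one hour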
MT1-MMP promoter: inhibitors of MT1-MMP promoter transcription, cell-based, luciferase reporter, luminescence (AID 618). calls from a first round at 10 µM; hits with a dose series show EC50 in µM. MT1-MMP promoter luciferase reporter cells, luminescence. 87,000 tested, 0.62% active;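 active = over half of the reporter light lost at 10 µM or EC50 under 50 µM; inactive = the rest and hits that failed the dose series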;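 also: actives suppress MT1-MMP promoter-driven transcription so potencies describe inhibitors; HT1080 fibrosarcoma cells; overnight exposure; toxic or luciferase-blocking compounds were not removed from the actives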
WNV NS2B-NS3 inh: inhibitors of WNV NS2B-NS3 protease, primary screen, biochemical, fluorogenic substrate; fluorogenic substrate Ex360/Em465; stronger effect = lower value; z-score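 (tested at a level between 10 and 100 µM)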; 65,000 tested, 0.18% active; AID 577, 2007;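 active = z-score at -3 or under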;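 also: score is relative to mean and spread of the compound wells of a plate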
Target sequence (P06935 1371-1501 limits assumed): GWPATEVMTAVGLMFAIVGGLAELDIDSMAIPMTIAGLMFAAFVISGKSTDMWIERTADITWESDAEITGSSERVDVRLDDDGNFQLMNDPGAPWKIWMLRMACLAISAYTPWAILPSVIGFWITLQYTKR
Target sequence (P06935 1502-1679 limits assumed): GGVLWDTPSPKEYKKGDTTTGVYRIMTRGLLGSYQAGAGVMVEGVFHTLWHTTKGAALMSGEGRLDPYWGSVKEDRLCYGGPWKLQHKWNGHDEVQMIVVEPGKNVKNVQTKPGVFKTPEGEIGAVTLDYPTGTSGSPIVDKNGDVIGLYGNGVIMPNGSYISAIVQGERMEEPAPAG
Active calls of the source: *; i = inactive; nt = no result given. Only part of the results is shown (hit frequency here may not be typical).

Each structure is followed by: Hsc70 ATP site, MT1-MMP promoter, WNV NS2B-NS3 inh
> O=C1C2=C(c3ccccc31)[N+](=O)[C@@H]1CCCC[C@@H]1N2[O-]
→ -3.9%, i, -0.71
> COC(=O)/C=C1/S/C(=N/NC(=O)c2ccccc2C)NC1=O
→ 4.6%, i, nt
> COc1ccc(CCN2C(=O)CC(Nc3ccc(N4CCOCC4)cc3)C2=O)cc1OC (stereo unspecified)
→ -4.9%, i, -0.26
> O=C(O)CN1C(=O)COc2cc(S(=O)(=O)N3CCCC3)ccc21
→ -0.5%, i, 0.58
> COc1ccc(Cl)cc1NC(=O)C1CSC(c2ccncc2)=N1 (stereo unspecified)
→ -1.9%, i, 0.79
> CC(=O)Nc1ccc(NC(=O)Cn2cc3c(n2)CCCC3)cc1
→ -1.0%, i, -1.25
> NC1=NC(c2ccc(Br)cc2)n2c(nc3ccccc32)N1 (stereo unspecified)
→ 3.0%, i, -0.04
> CCOc1ccccc1-c1nc(-c2ccc(NC(=O)c3ccc(Br)o3)cc2)no1
→ -10.0%, i, 1.19
> COc1cc(NC(=O)CN2CCN(S(=O)(=O)c3ccc(C(C)C)cc3)CC2)cc(OC)c1
→ -1.5%, i, 0.26
> COc1ccc(C)cc1S(=O)(=O)N(CC(=O)O)c1ccc(F)cc1
→ 1.8%, i, 2.7
> CCc1nccn1S(=O)(=O)c1ccc(OC)c(C)c1C
→ -6.2%, i, nt
> O=C(CNC(=S)N(Cc1ccccc1F)C1CCCCC1)NC1CC1
→ -0.8%, i, nt
> CN1CCc2c(sc3nc(SCC(N)=O)n(-c4ccccc4)c(=O)c23)C1
→ -128.9%, i, -0.45
> COc1ccccc1NC(=O)Cc1noc(CSc2cc(C)c3ccccc3n2)n1
→ -10.8%, i, -0.17
> Cc1nc2cc(C(=O)OCC(=O)NC3CCS(=O)(=O)C3)ccc2n1-c1ccccc1 (stereo unspecified)
→ 4.5%, i, nt
> O=C(/C=C/Nc1ccc(F)cc1)c1ccco1
→ -2.2%, i, 0.09
> CC1(C)Oc2ccc(C(=O)NC3CCCC3)cc2N(CC(=O)NC2CCCCC2)C1=O
→ -11.0%, i, -0.39
> Cc1cc(C)cc(N(CC(=O)NCc2ccco2)C(=O)CCC(=O)Nc2ccccn2)c1
→ -12.9%, i, 0.42
> Cc1cc(O)c(-c2cc(C(=O)Nc3ccc(S(=O)(=O)N4CCOCC4)cc3)[nH]n2)cc1C
→ -4.7%, i, 1.01
> COc1ccccc1CC(=O)Nc1ccc(-c2nnc(-c3ccco3)o2)cc1
→ 0.4%, i, -0.2
> Cc1sc2nc(-c3ccco3)oc(=O)c2c1C
→ -1.2%, i, -0.72
> CCSc1nnc(NC(=O)Cc2ccc(OC)c(S(=O)(=O)N3CCOCC3)c2)s1
→ 1.8%, i, 0.35
> COCCn1c(=O)[nH]c2cc(C(=O)OC)ccc2c1=O
→ -1.1%, i, 0.97
> Cn1c(C(=O)N2COCC2(C)C)cc2c(=O)n3ccccc3nc21
→ -1.8%, i, 3.45
> O=C1CCCc2nc(N3CCCCC3)sc21
→ -0.2%, i, 1.3
> CCCn1c(=O)c(C(=O)c2ccccc2)nc2ccccc21
→ -1.4%, i, nt
> Cc1nc(SCCO)c2oc3ccccc3c2n1
→ -4.1%, i, -1
> Cc1nnc(NC(=O)CSc2nnc(Cc3cccn3C)n2-c2cccc(C)c2C)s1
→ -0.5%, i, 0.95
> CCCCC(=O)Nc1ccc(Cl)cn1
→ -9.2%, i, 0.76
> COC(=O)c1ccc(NC(=O)CN(C2CCCCC2)S(C)(=O)=O)cc1
→ 2.8%, i, -1.22
> C/C=C(\C)C(=O)OC1c2c(ccc3ccc(=O)oc23)OC(C)(C)C1OC(C)=O (stereo unspecified)
→ -0.2%, i, nt
> Oc1ccc(Cl)cc1C1=Nc2ccccc2N=C(c2ccco2)C1
→ -28.0%, i, nt
> COC(=O)c1cn(CC(=O)NCc2cccs2)c2ccccc12
→ -2.5%, i, 0.34
> CCN(CC(=O)Nc1ccc2c(c1)OCCO2)S(=O)(=O)c1ccc(C)cc1
→ -0.7%, i, nt
> CCn1c(=O)c2cc(C(=O)Nc3cc(C)on3)sc2c2ccccc21
→ -4.1%, i, -0.86
> Cc1[nH]nc2c1/C(=N/O)CC(c1ccccc1)C2 (stereo unspecified)
→ -2.1%, i, nt
> Cc1cc(C)c(S(=O)(=O)N2CCN(CCO)CC2)c(C)c1
→ 1.9%, i, -0.46
> COc1ccc(C(=O)Nc2cccc(C(C)=O)c2)cc1OC
→ 4.6%, i, 1.96
> COc1ccc(-c2ccc(CCC(=O)O)n2NC(=O)c2cccs2)cc1
→ -0.1%, i, 0.23
> Cc1ccc2nc(NCCCO)[nH]c2c1
→ -1.4%, i, nt
> CCC(C)c1ccc(O)c(NC(=O)c2cccnc2)c1 (stereo unspecified)
→ -3.7%, i, 0.02
> c1ccc(-c2cc(N3CCOCC3)nc3ccccc23)cc1
→ -2.9%, i, nt
> COc1ccc(C(CC(=O)NC(C)(C)C)n2cccc2)cc1 (stereo unspecified)
→ 1.6%, i, -0.92
> CC(C)(C)C(=O)CN1CCN(S(=O)(=O)c2ccc(F)cc2)CC1
→ 1.0%, i, -0.15
> O=C(Cn1nc(-c2ccc(N3CCOCC3)c([N+](=O)[O-])c2)c2ccccc2c1=O)N1CCCCC1
→ 4.1%, i, nt
> COc1ccccc1C1C2CCCCC2(O)CCN1CC(=O)Nc1ccccc1 (stereo unspecified)
→ -6.6%, i, 1.77
> Cn1c(=O)[nH]c(=O)c2c1nc(SCCN1CCOCC1)n2Cc1ccccc1
→ 1.2%, i, 0.27
> Cn1c(=O)c2c(ncn2CC(=O)Nc2nnc(Cc3ccccc3)s2)n(C)c1=O
→ 1.1%, i, -0.3
> COc1ccc(OC)c(CCNC(=O)CS(=O)(=O)Cc2nc(-c3ccccc3C)oc2C)c1
→ -1.1%, i, 0.38
> O=C1CN(C(=O)c2cc(Br)c(Br)s2)c2ccccc2N1
→ 0.5%, i, nt
> COC(=O)c1ccccc1NC(=O)CSc1nccn1C
→ 2.4%, i, -0.54
> Cc1ccc2c(c1)c1c(n2C)C(C(N)=O)CCC1 (stereo unspecified)
→ 1.3%, i, 1.36
> O=C(COC(=O)c1cncc(Br)c1)NCCC1=CCCCC1
→ 3.2%, i, -1.44
> Cc1ccc(S(=O)(=O)C(C#N)c2nc3ccccc3nc2OC(C)C)cc1 (stereo unspecified)
→ 18.3%, i, 0.53
> Cc1cc(C)c(C#N)c(SCc2ccccc2)n1
→ -1.6%, i, nt
> CCOc1c(Br)cc(/C=C2\C(=O)N(CCC#N)N=C2C)cc1OC
→ 1.5%, i, nt
> O=C(CSc1nc2ccccc2n1CC(=O)N1CCCC1)N1CCN(C(=O)c2ccco2)CC1
→ -1.9%, i, 0.52
> COc1ccccc1NC(=O)N(Cc1ccccc1)c1ccccn1
→ -2.3%, i, 1.18
> O=[N+]([O-])c1ccc(Oc2ccc(F)cc2Br)c2ccncc12
→ -0.2%, i, nt
> CC(C)OC(=O)CSc1nc2cccnc2n1-c1ccc(F)cc1
→ 10.6%, i, nt

Further results follow.
Each structure is followed by: Hsc70 ATP site, MT1-MMP promoter, WNV NS2B-NS3 inh
> COc1ccc(C(CC(=O)NCc2ccco2)c2ccc(F)cc2)cc1 (stereo unspecified)
→ -3.1%, i, nt
> COC(=O)c1ccccc1NC(=O)CSc1ccccn1
→ 1.3%, i, -0.33
> COC(=O)c1oc2ccc(Br)cc2c1NC(=O)c1ccccc1
→ -10.0%, i, 0.12
> O=C(CCCn1c(=O)oc2ccccc21)Nc1cccnc1
→ -2.8%, i, -0.42
> CCOC(=O)N1CCC2(CC1)CC(=O)c1c(ccc3oc(C(=O)O)c(C)c13)O2
→ 0.8%, i, 0.18
> [O-][n+]1onc2c1CCc1nnccc1-2
→ 7.0%, i, -0.28
> CCCC1(C(=O)OCC)NC(c2ccc(N(C)C)cc2)C2C(=O)N(c3ccc4c(c3)OCCO4)C(=O)C21 (stereo unspecified)
→ -1.2%, i, nt
> COC(=O)c1sc(=S)n(-c2ccc(Cl)cc2)c1C
→ 0.7%, i, nt
> CCC(C)NC(=O)CCCCCn1c(=O)[nH]c2cc(OC)c(OC)cc2c1=O (stereo unspecified)
→ -4.5%, i, 2.99
> CCOC(=O)C1=C(CSc2nc3c(cc2C#N)CN(C)CC3)OC(N)=C(C#N)C1c1ccc(Cl)cc1 (stereo unspecified)
→ -2.4%, i, nt
> COc1ccccc1-n1c(SCC(=O)N2CCCC2)nc2cccnc21
→ -2.6%, i, -1.6
> CCOC(=O)c1sc(NC(=O)CSc2nc(-c3ccco3)cc(C(F)(F)F)n2)c(C#N)c1C
→ -3.7%, i, -0.76
> COc1ccc(CNc2nc3nc(-c4ccccc4)cc(=O)n3[nH]2)cc1OC
→ -2.3%, i, -1.3
> CCS(=O)(=O)Nc1ccc2c(c1)N(C(C)=O)c1ccccc1CC2
→ -5.5%, i, -0.43
> COc1ccc(NC(=O)CN(c2ccc(C)cc2)S(C)(=O)=O)c(OC)c1
→ -1.7%, i, 0.31
> O=C1CC(N2CCC(C(=O)N3CCCCC3)CC2)C(=O)N1 (stereo unspecified)
→ 4.9%, i, -0.55
> COc1ccc(-c2nc(CS(=O)(=O)CC(=O)Nc3ccc(Cl)cc3)c(C)o2)cc1
→ 1.0%, i, 0.57
> O=C(c1cccc(S(=O)(=O)NCCOc2ccccc2)c1)N1CCN(c2ncccn2)CC1
→ 5.5%, i, -0.5
> Cc1oc(-c2ccccc2)nc1C(=O)OCC(=O)NC(=O)NCC(C)C
→ -3.8%, i, -0.63
> NC(=O)Cn1c(S(=O)(=O)Cc2ccccc2)nc2ccccc21
→ -2.4%, i, -1.93

Results in WNV NS2B-NS3 inh, for some of the entries so far:
Molecule | WNV NS2B-NS3 inh
COc1ccc(Cl)cc1NC(=O)C1CSC(c2ccncc2)=N1 (stereo unspecified) | 0.79
CC(=O)Nc1ccc(NC(=O)Cn2cc3c(n2)CCCC3)cc1 | -1.25

New compounds follow
Each structure is followed by: Hsc70 ATP site, MT1-MMP promoter, WNV NS2B-NS3 inh
> CC1(C)C(=O)Nc2ccccc2N1C(=O)COC(=O)C12CC3CC(CC(O)(C3)C1)C2
→ 5.0%, i, 0.24
> CCN(CC)S(=O)(=O)c1ccc(C(=O)OCC(=O)N2CCN(C(=O)c3ccco3)CC2)cc1
→ 1.3%, i, -0.06
> N#CC1=C(N)N(c2ccccc2)C(c2ccco2)C1(C#N)C#N (stereo unspecified)
→ -6.6%, i, -0.08
> CCCC(=O)Nc1c2c(nn1-c1ccc(C)cc1C)CSC2
→ 1.6%, i, -0.87
> COc1ccc(N2CCN(c3nc4c(c(=O)n(C)c(=O)n4C)n3Cc3ccccc3)CC2)cc1
→ -2.0%, i, -0.19
> COc1ccc(C(=O)Nc2ccc(-c3ccc(C)o3)cc2)cc1S(=O)(=O)N1CCOCC1
→ 7.7%, i, -1.19
> CC(C)CC(OC(=O)c1cccs1)C(=O)NCc1cccs1 (stereo unspecified)
→ 3.9%, i, -0.57
> CCOC(=O)N1CCN(C(=O)c2cnn3c(C)c(Cc4ccc(C)cc4)c(C)nc23)CC1
→ -2.3%, i, -0.46
> CCOc1cc(CNc2ccc3c(c2)CCC3)ccc1OC
→ 3.0%, i, nt
> CCOC(=O)c1c(N)nn(C(=O)C(C)C)c1-c1ccc(OC)cc1
→ -1.1%, i, nt
> CC(=O)Nc1cnc2ccccc2n1
→ 2.7%, i, 0.3
> CC1=C(C(=O)NCc2ccccc2)C(c2cccnc2)n2ncnc2N1 (stereo unspecified)
→ -6.2%, i, -0.91
> Clc1ccc(-n2cccc2/C=N/n2cnnc2)cc1
→ -11.1%, i, nt
> CC(=O)c1c(N2CCOCC2)nc(=S)n(Cc2ccccc2)c1C
→ 5.8%, i, -0.92
> CCn1c2ccccc2c2cc(CN3CCN(C(=O)c4ccco4)CC3)ccc21
→ -2.1%, i, -1.15
> COc1ccc(C(=O)NCCn2ccc3ccccc32)cc1
→ -1.4%, i, 1.07
> C=CCSc1nnc(NC(=O)CSc2ccccn2)s1
→ -2.6%, i, -0.76
> COc1cccc(C(=O)Nc2nc(-c3ccc(S(=O)(=O)N4CCOCC4)cc3)cs2)c1
→ -3.0%, i, 0.12
> COc1cc(C(=O)N2CCC(NC(=O)C(Cc3ccccc3)NC(C)=O)CC2)cc(OC)c1OC (stereo unspecified)
→ -2.9%, i, 1.37
> CCOC(=O)c1cc2occc2n1CC(=O)NC1CCCCC1C (stereo unspecified)
→ -2.3%, i, -1.4
> CC(C)N(C(=O)CSc1nnc(CN2CCCCCC2=O)n1-c1ccccn1)C(C)C
→ 0.5%, i, 0.04
> CCC(C)C(=O)Nc1cc(OC)c(OC)cc1C(=O)O (stereo unspecified)
→ 6.2%, i, -0.53
> CCCOc1ccc(NC2=CC(=O)CC(C)(C)C2)cc1
→ -3.6%, i, -0.17
> O=C(COc1ccccc1)c1cn(CC(=O)N2CCOCC2)c2ccccc12
→ -41.1%, i, -0.88
> c1ccc(Cn2cnc3ccccc32)cc1
→ 5.5%, i, nt
> O=C(Cc1c[nH]c2ccccc12)OCCOC(=O)Cc1c[nH]c2ccccc12
→ -0.2%, i, nt
> O=C(c1cc(-c2ccc3c(c2)OCO3)on1)N1CCN(c2ccc(F)cc2)CC1
→ 3.8%, i, 0.5
> COc1ccc(N(CC(=O)NCCSC(C)(C)C)S(C)(=O)=O)c(OC)c1
→ -4.8%, i, 0.78
> COc1cc(NS(C)(=O)=O)c(OC)cc1NC(=O)c1ccccc1
→ -3.3%, i, 0.36
> O=C(NCCN1CCOCC1)NC1(C(F)(F)F)Oc2ccccc2O1
→ -1.0%, i, 1.8

Screening results: PubChem, several laboratories
